Source: PubChem
LASV entry inh = blocks Lassa virus binding to or entry into cells | Lassa virus pseudotype entry inhibition, cell reporter; control for the full effect not named in the record | Potency, µM (highest dose often 37.9 µM), for the others: at the highest dose activity change, negative = inhibition, most hits filed as inhibitors | 300,000 compounds, 1.2% hits; active means well fitted inhibition curve with a large enough effect; inconclusive means small, poorly fitted or top-dose-only effect, or effect the other way; inactive means flat fitted curve, though single readings scatter; tested in HEK293 cells; further: on the % scale 0 is the no-effect control and ±100 the full control effect; nearly all actives have a fitted effect of over 50% in size; luciferase read-out
NS1 function inh = influenza NS1 inhibition; 270,000 compounds, 0.4% hits; S. cerevisiae slowed by influenza A NS1, growth recovery by OD600; AID 2326; Potency, µM (series often up to 46.1 µM), without a hit: top-dose activity, positive = more growth; active means well fitted rising curve with a large enough effect; inconclusive means small, poorly fitted or top-dose-only effect; inactive means no such curve, though single readings can be large or run the other way; further: nearly all actives have a fitted effect of over 50% in size
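A cell-based growth assay was used: compounds that relieve NS1-induced slow growth of budding yeast raise OD600. Assay medium was yeast nitrogen base with ammonium sulphate and -URA supplement, pH 6.0, with 2% galactose.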
2A StopGo = lowers the luciferase signal of an FMDV 2A StopGo reporter. Potency, µM (titrated, usually from 57.9 µM), for the others: at the top dose signal change, negative = less light. 410,000 compounds, 1.2% hits. human cells with a luciferase reporter of 2A StopGo recoding; control for the full effect not named in the record; active = well fitted falling curve with a large enough effect; inconclusive = small, poorly fitted or top-dose-only effect; inactive = no such curve, though single readings can be large or run the other way; tested in HEK293T cells; further: on the % scale 0 is the no-effect control and ±100 the full control effect; nearly all actives have a fitted effect of over 45% in size; luciferase light after 4 h
Cruzain noTriton = inhibitors of Trypanosoma cruzi cruzain without detergent; 200,000 compounds, 2.3% hits; purified cruzain, Z-FR-AMC fluorescence, no detergent; P25779; AID 1476; Potency, µM, for the others: max response, negative = inhibition, usual class: inhibitors;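 further: plate controls were enzyme without inhibitor for no effect and buffer without enzyme for full effect; nearly all actives have a fitted effect of over 40% in size; top concentration of the series not given in the record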
Target sequence (P25779 123-467 limits assumed): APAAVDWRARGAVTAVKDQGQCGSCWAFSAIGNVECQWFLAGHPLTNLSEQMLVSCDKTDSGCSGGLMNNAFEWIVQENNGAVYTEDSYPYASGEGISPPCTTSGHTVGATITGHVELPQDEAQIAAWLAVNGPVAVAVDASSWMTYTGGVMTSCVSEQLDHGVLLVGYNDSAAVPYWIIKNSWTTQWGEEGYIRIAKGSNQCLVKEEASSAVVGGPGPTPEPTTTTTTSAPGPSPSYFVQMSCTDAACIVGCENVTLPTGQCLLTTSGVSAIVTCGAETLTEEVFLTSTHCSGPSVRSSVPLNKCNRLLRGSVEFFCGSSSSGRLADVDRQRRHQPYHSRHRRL
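Purified cruzain at 1.5 nM, pre-incubated 15 min with compound at room temperature in 100 mM sodium acetate pH 5.5, 5 mM DTT, 0.00005% Triton X-100. Reaction started with 2 uM Z-FR-AMC; AMC fluorescence increase over 60 s gives rate.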
Cruzain inh Det = inhibitors of Trypanosoma cruzi cruzain with detergent | P25779 | 200,000 compounds, 0.43% hits | Potency, µM, without a hit: max response, negative = inhibition, actives largely listed as inhibitors | purified cruzain, Z-FR-AMC fluorescence, 0.01% Triton;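 further: plate controls were neutral wells for no effect and buffer without enzyme for full effect; nearly all actives have a fitted effect of over 40% in size; top concentration of the series not given in the record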
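Detergent-containing arm of a paired screen for aggregation-based inhibition: 0.01% Triton X-100 present. Cruzain at 1.5 nM cleaved 2 uM Z-FR-AMC at pH 5.5 with 5 mM DTT; AMC fluorescence gain over 60 s measured activity.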
MARV entry inh = inhibitors of Marburg virus binding or cell entry. Marburg virus pseudotyped entry inhibition, cell reporter; control for the full effect not named in the record; about a third of the inactives were read at about 46 µM. Potency, µM (doses to about 37.8 µM), without a hit: at the highest dose activity change, negative = inhibition, most hits filed as inhibitors. 300,000 compounds, 1.8% hits. AID 540276; active = well fitted inhibition curve with a large enough effect; inconclusive = small, poorly fitted or top-dose-only effect, or effect the other way; inactive = flat fitted curve, though single readings scatter; tested in HEK293 cells; about a fifth of its hits are not listed in these tables; further: on the % scale 0 is the no-effect control and ±100 the full control effect; luciferase read-out
SARS PLpro yeast = inhibitors of SARS-CoV papain-like protease in yeast | S. cerevisiae expressing SARS-CoV PLpro, growth rescue; control for the full effect not named in the record | Potency, µM (doses to about 32.9 µM), without a hit: top-dose activity, positive = growth rescue | 330,000 compounds, 0.19% hits; active means well fitted rising curve with a large enough effect; inconclusive means small, poorly fitted or top-dose-only effect; inactive means no such curve, though single readings can be large or run the other way; further: 0% is about no effect; nearly all actives have a fitted effect of over 55% in size; growth read by luminescence after 48 h
RE007 growth inh = less growth of the S. pombe RE007 Vpr strain. S. pombe RE007 Vpr strain, BacTiter-Glo ATP luminescence, 24 h; control for the full effect not named in the record. 360,000 compounds, 0.21% hits. Potency, µM (series often up to 92.2 µM), without a hit: at the top dose activity change, negative = less growth; active = well fitted falling curve with a large enough effect; inconclusive = small, poorly fitted or top-dose-only effect; inactive = no such curve, though single readings can be large or run the other way;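 further: on the % scale 0 is the no-effect control and ±100 the full control effect; nearly all actives have a fitted effect of over 50% in size; the assay follows cell death caused by Vpr and the record does not say whether a fall means rescue or toxicity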
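Fission yeast strain RE007, carrying one chromosomally integrated HIV-1 vpr copy, was seeded at OD 0.01 in PMG+AL medium with 23 nL pinned compound. After 24 h at 30 °C and 99% humidity, viability was read by BacTiter-Glo luminescence.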
* = called active by the depositor; ? = inconclusive; nt = no result given; & = joins results of further samples; [ ] = remark or other dose. Unless noted, the call rests on the fitted dose curve; in most records, active means well fitted curve in the direction sought with a large enough effect; inconclusive means small, poorly fitted or top-dose-only effect, or another doubt; inactive means no such curve, though single readings can be large; an effect the other way counts as inactive or inconclusive. Potency means the concentration at half of the fitted maximal effect.

SMILES	LASV entry inh	NS1 function inh	2A StopGo	Cruzain noTriton	Cruzain inh Det	MARV entry inh	SARS PLpro yeast	RE007 growth inh
O=C(Nc1ccc2c(c1)OCCO2)C1CCN(C(=O)c2ccc(Cl)cc2)CC1	?	-7%	16%	-2%	-3.2%	?	-16%	4%
Cn1c(=O)n(C)c2cc(NS(=O)(=O)c3ccc(F)cc3)ccc21	-39%&-1%[46.1 µM]	3%	31%&11%[activator]	-10%	-1.3%	-30%&-1%[46.1 µM]	0%	-5%
COc1cc(/C=N/NC(=O)c2nc3ccccn3c2C)cc(OC)c1O	4%	nt	11%	nt	nt	-15%[46.1 µM]	0%	-17%
COCCCN1C(=O)C2C(C(=O)Nc3cc(C)cc(C)c3)C3C=CC2(O3)C1C(=O)NC1CCCCC1 (stereo not given)	2%	1%	0%	nt	nt	-15%[46.1 µM]	-5%	-6%
COC(=O)c1ccc(COc2ccc(/C=N/O)cc2OC)o1	-15%[46.1 µM]	-42%	19%	nt	nt	?	-1%	-18%
CCc1cc2c(N3CCN(C)CC3)ncnc2s1	-3%	9%	-12%	2%	-2.8%	-6%	13%	3%
CC(=O)N1CC(c2ccccc2)C(c2ccc(Cl)cc2)=N1 (stereo not given)	-19%	-9%	0%	-3%	-7.0%	-1%	12%	-1%
Cc1onc(-c2ccc3c(c2)OCO3)c1-c1ccc2[nH]ccc2c1	nt	-88%	?	nt	nt	nt	-43%	5%
Cn1c(=O)n(C)c2cc(CN3C(=O)OC(C)(C)C3(C)O)ccc21 (stereo not given)	nt	1%	-14%	-1%	4.1%	nt	3%	3%
N#CCC(=O)Nc1cc(C(F)(F)F)ccc1N1CCOCC1	15%	7%	-2%	nt	nt	-1%	-2%	0%
COCCN(C(=O)CSc1nc2ccc(Cl)cc2[nH]1)c1c(N)n(Cc2ccccc2)c(=O)[nH]c1=O	-23%	11%	-19%	nt	nt	6%	-1%	5%
Cc1ccc(-n2sc3ccccc3c2=O)cc1	?	-40%	-3%	-12%	-7.6%	3.2µM*	-86%	6.3µM*
Cc1ccc(Nc2ccc(C(F)(F)F)cc2[N+](=O)[O-])cc1	-13%	-11%	-10%	-2%	-8.1%	-9%	-12%	-28%
Cc1c(S(=O)(=O)N2CCN(c3ccccc3)CC2)c(=O)n(C)c(=O)n1C	-3%	-60%	2%	nt	nt	6%[46.1 µM]	-2%	-2%
COc1cccc(OCCCCSc2ncccn2)c1	15%	-41%	0%	-4%	-2.6%	?	0%	?
N#Cc1c(C(F)(F)F)cc(-c2ccc(F)cc2)nc1SCC(=O)O	1%	5%	-25%	nt	nt	0%[46.1 µM]	0%	12%
CN(C)/C=C1/NC(=S)NC1=O	5%	0%	1%	nt	nt	-4%[46.1 µM]	-1%	-1%
CC(=O)Nc1ccc(SCC(=O)NC(=O)c2ccc(S(=O)(=O)N(C)C)cc2)cc1	28%	nt	12%	nt	nt	-9%	-5%	14%
CC1CCN(C(=O)c2ccc(-n3cnnn3)cc2)CC1	3%	3%	-17%	8%	-3.3%	23%[46.1 µM]	1%	28%
CC(C)(O)C#Cc1ccc(C(=O)N2CCC(C(N)=O)(N3CCCCC3)CC2)cc1	-2%	-11%	4%	8%	-0.4%	14%[46.1 µM]	3%	-8%
CC(C)(CO)NS(=O)(=O)c1ccc2c(c1)oc(=O)c1cc(S(=O)(=O)NC(C)(C)CO)ccc12	26%	3%	10%	6%	-5.1%	8%	nt	17%
COc1ccc(/C=N/NC(=O)c2cc(-c3ccc4c(c3)OCO4)n[nH]2)cc1OC	0%	9%	-10%	?	-1.8%	?	0%	7%
Cc1cc(C(=O)COC(=O)CC2Sc3ccccc3NC2=O)c(C)n1-c1ccccc1 (stereo not given)	4%	17%	5%	?	-11%	?	?	-9%
COCCOC1CCN(C(=O)c2cc(COc3ccc(F)cc3F)on2)CC1	1%	15%	25%	nt	nt	11%	1%	7%
COc1ccc(C2C(C(C)=O)=C(C)N=c3s/c(=C\c4ccco4)c(=O)n32)c(OC)c1 (stereo not given)	-12%	-12%	-14%	?	-14%	-27%	3%	-5%[3.69 µM]
Cc1ccc(C)c(-n2c(CNc3ccc(F)cc3)nnc2SCC(N)=O)c1	1%	-14%	nt	16%	-4.2%	0%	-3%	11%
Cc1cn2c(=O)cc(COC(=O)c3ccc(NC(=O)c4ccc(C(C)(C)C)cc4)cc3)nc2s1	?	nt	-12%	-8%	1.6%	nt	nt	nt
O=C(NC(Nc1ccccn1)C(Cl)(Cl)Cl)c1ccccc1 (stereo not given)	19%	1%	-24%	nt	nt	?	-2%	-9%
O=C(CCNS(=O)(=O)c1cccc2nsnc12)N1CCN(c2ccccn2)CC1	nt	0%	nt	-2%	0.2%	0%	8%	nt
CCOC(=O)Cc1csc(NC(=O)CSc2cc(Cl)ccc2Cl)n1	0%	-13%	-9%	-7%	-9.9%	-1%	13%	7%
Cc1onc(-c2ccccc2)c1C(=O)N1CCN(c2ccccn2)CC1	-21%[46.1 µM]	-2%	21%	nt	nt	6%[46.1 µM]	3%	5%
COc1ccc(C(=O)NCC(c2ccco2)N2CCc3ccccc32)cc1 (stereo not given)	?	nt	-15%	nt	nt	?	-1%	-11%
CC(=O)c1ccc(NC(=O)C(C)N(C)CC(=O)Nc2ccc(N3CCOCC3)cc2)cc1 (stereo not given)	4%	nt	-1%	nt	nt	6%[46.1 µM]	-5%	4%
COc1ccc2c(/C=N/Nc3ccc(C(=O)O)cc3)c[nH]c2c1	-7%[46.1 µM]	22%	-13%	nt	nt	?	-2%	-9%
CC(C)(C)CNc1cc(N2CCOCC2)ccc1[N+](=O)[O-]	?	-34%	-7%	nt	nt	?	-1%	6%
CCOC(=O)CSC1=N/C(=C\c2cc(OC)c(OC)c(OC)c2)C(=O)N1C	4%	-7%	-4%	?	-4.6%	4%	3%	6%
CCN(CC(=O)Nc1cc(Cl)ccc1C)C(=O)Cc1sc(C)nc1-c1ccc(F)cc1	-28%	nt	-27%	nt	nt	?	-6%	-2%
O=C(Cn1nc(Cc2ccncc2)c2ccccc2c1=O)N1CCN(C(=O)c2ccco2)CC1	nt	10%	-21%	7%	4.4%	nt	2%	4%
CCCc1ccc(S(=O)(=O)Nc2ccc(C)c(NS(C)(=O)=O)c2)cc1	?	-2%	21%	nt	nt	19%[46.1 µM]	-2%	22%
CCOc1cc(CNc2ccc(O)cc2)cc(Br)c1OCc1ccccc1	-7%[46.1 µM]	nt	?	-29%	-15%	?	nt	nt
CCc1cc2c(CN3CCN(Cc4ccccc4)CC3)cc(=O)oc2cc1O	-17%[46.1 µM]	2%	?	nt	nt	?	-1%	-12%
Cn1cccc1Cc1nnc(SCC(=O)NC2CCCCC2)n1CCc1ccccc1	-24%	?	5%	16%	-2.7%	-24%	-2%	-6%
CCC(C)(C)n1nnnc1C(c1ccc(C)cc1)N1CCC(C)CC1 (stereo not given)	3%	-26%	1%	3%	4.2%	-28%	-3%	-22%
CC(C)CC(=O)Nc1cc(NC(=O)CC(C)C)cc(C(=O)NC(C)(C)C)c1	2%	1%	-16%	5%	5.0%	-6%	0%	17%
COc1ccc(NC(=O)c2ccco2)cc1NC(=O)c1ccc(OC(C)C)cc1	-26%[46.1 µM]	nt	6%	13%	-8.0%	-14%[46.1 µM]	nt	nt
Cc1cc(SC(C)C(=O)Nc2c(C)n(C)n(-c3ccccc3)c2=O)nc2ccccc12 (stereo not given)	-2%	10%	-2%	7%	-3.0%	-10%	-3%	22%
C/C(=C\C(=O)c1ccc(Br)cc1)NCc1ccccc1	9%	-6%	-9%	0%	2.1%	0%	-2%	-11%
CCOC(=O)c1c(C)oc2nc(C)nc(N3CCN(c4ccc(C(C)=O)cc4)CC3)c12	11%[46.1 µM]	nt	0%	-7%	-1.3%	nt	nt	nt
C#CC1(NC(=O)N(C)C)CCCCC1	nt	0%	1%	nt	nt	nt	24%	-20%
COc1ccc(S(=O)(=O)N(CC(=O)N2CCc3ccccc3C2)c2ccc(C)cc2)cc1	6.3µM*	nt	33%[activator]	-3%	-6.8%	-21%[46.1 µM]	nt	nt
Cc1ccn2c(=O)cc(COc3ccc(NC(=O)c4ccccc4F)cc3)nc2c1	-14%[46.1 µM]	nt	-8%	-3%	0.2%	nt	nt	nt
Cc1ccc(C)c(NC(=O)C(=O)NCCc2csc(-c3ccc(C(F)(F)F)cc3)n2)c1	-5%[46.1 µM]	nt	-10%	-8%	-1.8%	nt	nt	nt
CCN1CCN(CCCNC(=O)c2ccc3c(c2)sc2nc(-c4ccc(C)cc4)cn23)CC1	3%[46.1 µM]	nt	7%	5%	-5.5%	nt	nt	nt
CCOC(=O)C1CCN(Cc2cc(=O)oc3cc(C)c(Cl)cc23)CC1	5%[46.1 µM]	-2%	-12%	nt	nt	-5%[46.1 µM]	1%	0%
CC(C)(C)c1ccc(-c2n[nH]c(=S)n2C2CCCC2)cc1	?	4%	?	-1%	-11%	?	-13%	-28%
COC(=O)C(C)N(C(=O)c1cccc(Cl)c1)c1c(C)cccc1C (stereo not given)	1%	-129%	0%	-2%	-3.4%	-14%	-12%	1%
O=C(CCCn1c(=O)[nH]c2ccsc2c1=O)N1CCN(c2cccc(C(F)(F)F)c2)CC1	-21%[46.1 µM]	nt	?	?	-5.1%	-1%[46.1 µM]	nt	nt
Fc1ccccc1N1CCN(C(c2ccccn2)c2nnnn2C2CCCCC2)CC1 (stereo not given)	-8%	-57%	nt	16%	-3.4%	?	-5%	8%
COc1ccc(C(=O)COC(=O)[C@H](C)NS(=O)(=O)c2ccc(NC(C)=O)cc2)cc1OC	-10%	nt	-8%	nt	nt	?	nt	-14%
COc1ccc2[nH]c3c(c2c1)CCN1C(=O)C(CC(=O)NCCN2CCOCC2)C[C@H](C(=O)N2CCCCC2)[C@@]31C (stereo not given in full)	nt	nt	-20%	nt	nt	5%	-5%	-12%
Cc1ccc2c(c1)N(C(=O)CCC(=O)NCc1ccccn1)CC(C)O2 (stereo not given)	nt	-4%	-16%	nt	nt	nt	-2%	-6%
